Sa ugtP lethal: growth inhibition of ugtP-null S. aureus, primary screen, RN4220 ugtP deletion, OD600 | 330,000 tested, 0.54% active | growth inhibition, % (test concentration not listed) | 16 h; some inactives read as strong as hits;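 active = z-score under -3 and OD600 up to 0.15 on both plates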;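 note: plate controls were untreated wells for no effect and antibiotic for full effect; wells of about 80 µL received 100 nL stock; the first replicate is given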
PrP 5UTR inh: inhibition of PrP 5' UTR reporter expression; cell-based PrP 5' UTR mRNA reporter, plate reader; AID 488862, 2010; inhibition, % (no concentration beside the values); 340,000 tested, 0.35% active;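 active = every replicate at 50% or more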;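 note: 0 = median of the neutral control wells; tested in H4 reporter cells; numbers are from one replicate; inactives centre near -14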
Mtb hypoxia rep: PubChem AID 1159583. M. tuberculosis hypoxia-regulated fluorescent reporter, fluorescence. 300,000 tested, 0.1% active. fluorescence inhibition, % (no concentration beside the values);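 active = 35 to 45% if threefold the growth effect, above 45% if 1.5-fold the growth effect; inactive = the rest, general growth blockers included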;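 note: wells of about 50 µL received 100 nL stock; 0% = vehicle wells and 100% = reference inhibitor wells; whole bacteria with a GFP reporter of the hypoxia response; strong numbers were not always called active; many hits fall short of the cut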
RN4220 kill: growth inhibition of S. aureus RN4220, primary screen, OD600 | 16 h | inhibition, % (concentration not given with the values) | 330,000 tested, 0.33% active | AID 1259311, 2017;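 active = z-score of -3 or lower and OD600 up to 0.18 on both plates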;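 note: plate controls were untreated cells for no effect and reference antibiotic for full effect; stock transfer was 100 nL into about 80 µL; one replicate is shown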
Autofluor counter: flagged as autofluorescent in microsphere protease counterscreen; compound autofluorescence counterscreen, microsphere flow cytometry; stronger effect = higher value; fluorescence intensity (test concentration not listed); 360,000 tested, 3.1% active; AID 624483;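 active = at least 3 SD above the mean of all compounds, about 16000 in these data; inconclusive = too few beads counted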;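 note: 100 nL of 1 mM stock went into each well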
BJeLR viability: MLPCN primary cell-based screen for lethality selective to Ras in HRASV12 cells | BJeLR (HRASV12) viability, CellTiter-Glo ATP luminescence, 48 h; reference of the scale not given here | inhibition, % (no concentration beside the values) | 300,000 tested, 0.17% active;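 active = replicate mean above 50%; inconclusive = above 50% but judged a plate artefact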;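 note: 50 nL library stock added to about 25 µL; numbers are from one replicate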
Mtb hypoxia rep growth: also measured in Mtb hypoxia rep; calls as there; growth inhibition, %; measured here: M. tuberculosis growth (absorbance);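 0% = vehicle and 100% = reference antibiotic; read after six days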
* marks the source's active call; other numbers are inactive results; ? = inconclusive; . = not tested or not shown.

molecule,Sa ugtP lethal,PrP 5UTR inh,Mtb hypoxia rep,Mtb hypoxia rep growth,RN4220 kill,Autofluor counter,BJeLR viability
CCOC(=O)C1CCCN(C(=O)c2cc3cc4ccc(OC)cc4nc3o2)C1 (stereo not given),3.5,-20.2,8.9,-6.0,1.9,4862,-5.2
O=C(O)c1cc2cccc(S(=O)(=O)N3CCCCC3)c2cc1O,0.2,-11.4,9.9,2.9,-4.6,5097,9.9
COc1ccccc1NC(=O)CSc1nccc(=O)[nH]1,2.7,-4.8,5.9,4.1,3.6,21630*,-0.6
CCN(c1ccccc1)c1nc(Cl)nc2c1cnn2C,-0.3,4.7,18.8,10.3,0.9,3828,.
O=C(NC(=S)Nc1ccc2oc(=O)ccc2c1)c1ccco1,-5.7,-14.4,16.4,17.4,8.9,4214,5.3
O=C(CSC(=S)N1CCOCC1)c1ccccc1,2.3,33.8,25.7,28.8,3.9,8569,-8.6
O=C(NCC1CCCO1)c1ccccc1S(=O)(=O)c1ccc([N+](=O)[O-])cc1 (stereo not given),-7.5,-16.2,5.6,2.0,8.3,2323,3.7
OC1CCCN(C(=S)NCc2ccccc2)C1 (stereo not given),6.2,-26.1,5.3,-2.5,6.5,3983,-1.2
CC(C)C(OC(=O)c1ccco1)C(=O)NC1CCCCC1 (stereo not given),-0.4,-11.4,-2.0,2.7,2.2,3593,-3.1
O=c1c(-c2cccc([N+](=O)[O-])c2)[n+]([O-])c2ccccc2n1O,10.2,-12.8,12.7,-4.5,3.1,4612,7.4
COc1ccc2nc(/N=C(\N)NC(=O)C(C)(C)C)nc(C)c2c1,.,-81.9,.,.,.,3029,2.6
COc1ccc(CCC(=O)Nc2cccc(S(=O)(=O)N3CCCCCC3)c2)cc1,8.7,-12.4,5.3,2.0,3.4,?,.
COC(=O)c1c(NC(=O)c2ccccc2)sc(C(N)=O)c1C,2.3,-34.0,9.1,1.5,-1.7,3778,-7.9
Cc1cc(NS(C)(=O)=O)c(=O)n(Cc2c(F)cccc2Cl)c1,4.3,-9.3,5.1,-1.5,2.6,3804,-0.8
Cc1cc(C)c(COCc2cc(/C=N/O)c(C)cc2C)cc1/C=N/O,.,-6.8,.,.,.,5498,2.1
CNC(=O)c1cc(S(=O)(=O)N2CC(C)OC(C)C2)ccc1N1CCCCC1 (stereo not given),10.2,4.5,5.1,4.4,5.1,4200,7.2
CCOC(=O)c1sc2nc(CSc3ccccc3)nc(N3CCCN(C)CC3)c2c1C,12.3,-8.8,.,.,-4.1,5311,-0.9
CCC(=NCCCN(CC)CC)c1c(O)n(C2CCCCC2)c(=O)[nH]c1=O,5.6,-7.8,7.4,5.3,4.9,25763*,-3.9
O=C(CNC(=O)c1ccco1)N/N=C/c1ccccc1[N+](=O)[O-],.,-18.1,.,.,.,2188,0.0
COCCCNC(=S)N/N=C/c1ccc(N(C)C)cc1,.,-22.7,.,.,.,4420,8.2
O=C(COC(=O)CCSc1ccccc1)Nc1cc(F)ccc1F,9.9,-44.7,7.4,0.7,2.8,4402,12.6
CCN(CC)CC1(O)CCN(C(=O)c2ccc(Cl)c(Cl)c2)CC1,7.5,-14.9,15.4,7.7,1.7,4498,.
COC(=O)c1ccc(N2C(=O)CC(N3CCC(O)(c4ccc(Br)cc4)CC3)C2=O)cc1 (stereo not given),1.2,-18.2,9.0,16.5,7.8,4010,6.8
CCCCCCN=C(C)c1c(O)n(CCCC)c(=O)[nH]c1=O,-0.8,-9.9,15.1,10.1,5.4,2960,-1.9
O=[N+]([O-])c1ccc(F)c(N=Cc2ccc(Br)s2)c1,4.0,-27.8,-2.0,-6.4,3.9,2481,-4.8
Cc1cc(CNC(=O)c2cc(COc3ccc(F)c(F)c3)on2)nn1C,-0.7,-77.1,3.2,-0.1,0.2,5349,1.7
Cc1ccc(CNc2nc3ccccc3n2C)cc1,.,-33.5,.,.,.,4210,1.1
CC1CCN(C(=O)CCc2ccc(S(=O)(=O)NC(C)C)cc2)CC1,7.4,-13.0,3.0,1.8,3.8,6843,-9.5
Cn1ccnc1/C(=N\NC(=O)c1ccccc1)c1cccc([N+](=O)[O-])c1,.,-21.6,.,.,.,4454,3.0
COc1ccc(C2(O)CC3CCC(C2)N3c2cc(C)nc(-c3ccccc3)n2)cc1 (stereo not given),9.4,-45.0,-5.0,0.8,-7.0,9876,-5.1

The final three entries of the part before come first, to join the parts:
molecule,Sa ugtP lethal,PrP 5UTR inh,Mtb hypoxia rep,Mtb hypoxia rep growth,RN4220 kill,Autofluor counter,BJeLR viability
CC1CCN(C(=O)CCc2ccc(S(=O)(=O)NC(C)C)cc2)CC1,7.4,-13.0,3.0,1.8,3.8,6843,-9.5
Cn1ccnc1/C(=N\NC(=O)c1ccccc1)c1cccc([N+](=O)[O-])c1,.,-21.6,.,.,.,4454,3.0
COc1ccc(C2(O)CC3CCC(C2)N3c2cc(C)nc(-c3ccccc3)n2)cc1 (stereo not given),9.4,-45.0,-5.0,0.8,-7.0,9876,-5.1
CC[n+]1c(P(=O)([O-])c2ccccc2)[nH]c2ccccc21,-2.0,-7.6,6.1,11.1,0.8,4131,-15.1
CCOC(=O)C1(CC2CCCCO2)CCN(Cc2cc3ccccc3[nH]2)CC1 (stereo not given),6.1,4.3,-8.5,-6.9,-0.5,2703,5.3
COCCN=C1NN=C(c2ccc(C)c([N+](=O)[O-])c2)CS1,12.4,-42.5,-2.8,2.2,2.6,2566,-14.8
O=C(COC(=O)/C=C/c1cccc(C(F)(F)F)c1)Nc1ccc(Cl)cn1,5.0,-13.8,8.2,0.6,-2.0,3670,.
CCOc1cccc(NC(=O)Cc2cccs2)c1,-1.3,-35.5,2.4,-4.1,5.2,3460,6.3
CN1CCN(Cc2nc3ccccc3c(=O)[nH]2)CC1,3.2,-13.4,3.6,-1.3,-1.4,15255,-0.8
C(=NNc1nc(N2CCCC2)nc(N2CCCC2)n1)c1cccnc1,9.3,.,15.5,-2.4,2.8,.,.
Cc1cc2c3c(c1C)C1(C(=O)N3C(C)(C)CC2C)C(C#N)=C(N)Oc2cc(O)ccc21 (stereo not given),-11.9,-17.6,-3.4,3.3,-1.1,7873,-6.9
CCS(=O)(=O)c1nc(NC(C)=O)n[nH]1,2.1,-8.4,.,.,0.8,3503,7.8
O=[N+]([O-])c1cccc(-c2nc(-c3ccccn3)no2)c1,4.1,-9.9,5.6,0.2,3.0,4634,1.9
C/C(Nc1ccc(F)cc1)=C(/C#N)C(N)=O,-3.6,-20.3,1.8,5.7,-0.4,3650,-3.2
c1ccc(Cn2nnnc2C(c2ccccn2)N2CCN(c3ccccc3)CC2)cc1 (stereo not given),-3.6,-8.3,4.2,5.1,5.0,2924,1.6
Cc1ccc(-c2csc(N(Cc3ccccc3)C(=O)COc3ccccc3)n2)cc1,0.7,-25.4,-1.9,-4.2,0.5,9215,2.6
CC1CCCN(S(=O)(=O)c2cnc[nH]2)C1 (stereo not given),7.3,-24.1,8.5,-7.5,3.5,5938,-9.2
O=C(CCCNS(=O)(=O)c1ccc(Br)cc1)N1CC[C@@]2(O)CCCC[C@H]2C1,3.6,-19.4,.,.,-3.1,4236,1.6
Cc1ccc2c(c1)N(C(=O)CCC(=O)N1CCN(c3ccccn3)CC1)CC(C)O2 (stereo not given),-7.1,-13.0,3.8,7.1,-9.8,5537,-5.0
O=c1c2c3c(sc2ncn1N=Cc1ccccc1)CCCC3,-23.8,.,9.7,6.1,-3.1,.,.
CN(CC(=O)Nc1cccc(F)c1)C(=O)c1cc(-c2cccs2)nn1-c1ccccc1,11.0,-14.9,9.2,-1.5,5.6,4183,-10.3
Cc1cc(N2CCCC2)ccc1NC(=O)COc1cccc(C(F)(F)F)c1,1.8,13.8,3.9,6.3,19.3,6122,10.1
N#C/C(=C(/O)Cc1cccc2ccccc12)c1nc2ccccc2s1,88.0*,-5.7,-5.7,2.6,83.6,3062,13.0
C=CCNCc1cc(=O)n2c(-c3ccccc3)csc2n1,-2.6,-22.6,8.0,-1.1,-0.2,4167,0.0
C/C(=N\OCC(=O)O)c1ccc(Cl)cc1,.,-14.6,.,.,.,3998,0.1
CCCN(CCC)C(=O)C1CC(=O)OC12CCOC(C)(C)C2 (stereo not given),.,-19.7,.,.,.,2349,-0.6
O=C(N=Nc1c(O)n(C2OC(=O)c3ccccc32)c2ccccc12)c1ccco1 (stereo not given),7.6,.,11.7,10.2,6.9,.,-1.7
Cc1[nH]c2ccc(C(=O)OCC(=O)Nc3cccc(S(N)(=O)=O)c3)cc2c1C,0.3,0.9,-2.6,0.2,2.3,4498,.
O=C(Oc1ccc(-c2cnc3ccccc3n2)cc1)c1ccco1,-7.4,-30.5,9.0,8.6,3.4,20475*,9.6
Cc1cc(C)n(-c2nc3c(c(=O)[nH]c(=O)n3C)n2Cc2ccc(F)cc2)n1,-1.6,-13.2,.,.,0.3,5778,-11.0
CCCCn1c(N)c(N(CC(C)C)C(=O)c2ccc(OCC3CCCO3)cc2)c(=O)[nH]c1=O (stereo not given),-1.0,-25.0,-8.8,7.4,-2.7,4359,-7.2
COc1cc(/C=C2/SC(=S)N(CC3CCCO3)C2=O)ccc1O (stereo not given),.,-17.1,.,.,.,8766,-0.4
CNc1nc(-c2c(C)[nH]c3ccc(OC)cc23)cs1,13.3,4.2,0.7,-8.7,3.8,3042,-2.1
COCCCNC(=S)N1CCN(c2nc(-c3cccc(OC)c3)cs2)CC1,0.3,-17.5,11.5,2.0,3.8,4158,-3.3
COc1cccc(CNC(=O)CN(C)S(=O)(=O)c2cccc3cccnc23)c1,-3.4,-21.4,-3.4,14.5,-1.2,4497,-3.4
COc1cc([N+](=O)[O-])cc2sc(NC(=O)C(C)(C)C)nc12,11.0,-17.2,-5.1,2.0,4.5,4577,-7.1
CCCCn1c(N)c(N(CC(C)C)C(=O)CN(C)S(=O)(=O)c2ccc(C)cc2)c(=O)[nH]c1=O,1.9,-63.0,11.9,1.5,0.8,.,-1.3
O=C(O)CCc1ccc(-c2ccccc2)n1NC(=O)c1ccco1,-2.0,-29.2,.,.,-0.7,4308,-9.2
CCc1ccc2nc(NC(=O)CN3C(=O)NC4(CCCC4)C3=O)sc2c1,-5.5,-39.0,-3.9,0.6,2.9,2898,.
COc1cccc(C(C(=O)NC2CCCC2)N(CC2CCCO2)C(=O)Cc2cccs2)c1 (stereo not given),-0.1,-11.7,-2.5,-5.7,1.9,4850,-9.4
Cc1nnsc1C(=O)N/N=C/c1cccc(C(F)(F)F)c1,.,-11.4,.,.,.,4717,-1.4
CC(=O)CCc1c(C)nc2ccc(C(=O)O)cc2c1Cl,3.5,9.0,12.1,4.7,4.5,2186,-12.1
